E coli growth – E. coli growth inhibition | OD600 absorbance (test concentration not listed) | 0.21% of 330,000 active | Escherichia coli growth, OD600, 23 h; hits give low values;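 active = OD600 absorbance below the run mean of sample wells minus 3.6 SD, in any replicate, cut at about 0.56 in these data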;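 note: stock transfer was 300 nL into about 60 µL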
Ecoli rRNA inh – selective bacterial rRNA inhibition in E. coli | 1.6% of 350,000 active | GFP signal change (wild-type ribosome), % (test concentration not listed) | E. coli WT GFP vs humanized-ribosome RFP mutants, fluorescence, 24 h; hits give low values; DMSO median 0, no signal -100;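 active = significant combined selectivity score with lowered wild-type GFP, culture density cut under 30%, mutant RFP and density less affected; inactive = any of these conditions unmet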; note: one replicate is shown; some compounds called inactive have numbers as strong as hits
Vif TR-FRET – inhibitors of Vif binding to APOBEC3G peptide, primary screen, biochemical, TR-FRET, GST-Vif 1-94, biotin-A3G peptide, dose response retest (AID 1117319) | TR-FRET GST-Vif / biotin-A3G peptide binding; higher % means a stronger effect; test concentration not given here; strong numbers were not always called active | 0.57% of 260,000 active | inhibition, %, or IC50 in µM where a hit was titrated;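 active = above the screen mean plus three standard deviations and confirmed in dose response; inconclusive = results disagree or hit not tested in dose response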;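 note: Vif residues 1-94 fused to GST binding biotinylated APOBEC3G peptide 110-148; 0% = full assay without inhibitor and 100% = GST in place of GST-Vif; retest series ran down from 100 µM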
HNF4A DNA FP – change in binding of human HNF4 alpha to DNA; P41235; HNF4a-FITC DNA binding, fluorescence polarization, 1 h; activity change, % at 10 µM; 0.3% of 360,000 active; in the data active = activity change above about 30%, passing the limit was not always enough;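 note: controls were the assay level and a saturating level of protein; the project sought stronger binding though the title names inhibitors; some compounds called inactive have numbers as strong as hits; positive values seem to mean higher polarization but the record does not say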
AF4-AF9 inh – MLL-AF4/AF9 protein interaction inhibition. P42568. AlphaScreen, biotin-AF4 peptide binding to FLAG-AF9. inhibition, % at 10 µM. 0.47% of 350,000 active;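 active = every replicate reaching a set inhibition limit, whatever the replicate mean, cut at about 25% in these data; inconclusive = mean inhibition reaches that limit but some replicates miss it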;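 note: 0% = plate neutral control median and 100% = total signal loss; the record names both 10 and 1 µM as test concentration; the first replicate is given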
Target sequence (P42568 whole entry, looked up): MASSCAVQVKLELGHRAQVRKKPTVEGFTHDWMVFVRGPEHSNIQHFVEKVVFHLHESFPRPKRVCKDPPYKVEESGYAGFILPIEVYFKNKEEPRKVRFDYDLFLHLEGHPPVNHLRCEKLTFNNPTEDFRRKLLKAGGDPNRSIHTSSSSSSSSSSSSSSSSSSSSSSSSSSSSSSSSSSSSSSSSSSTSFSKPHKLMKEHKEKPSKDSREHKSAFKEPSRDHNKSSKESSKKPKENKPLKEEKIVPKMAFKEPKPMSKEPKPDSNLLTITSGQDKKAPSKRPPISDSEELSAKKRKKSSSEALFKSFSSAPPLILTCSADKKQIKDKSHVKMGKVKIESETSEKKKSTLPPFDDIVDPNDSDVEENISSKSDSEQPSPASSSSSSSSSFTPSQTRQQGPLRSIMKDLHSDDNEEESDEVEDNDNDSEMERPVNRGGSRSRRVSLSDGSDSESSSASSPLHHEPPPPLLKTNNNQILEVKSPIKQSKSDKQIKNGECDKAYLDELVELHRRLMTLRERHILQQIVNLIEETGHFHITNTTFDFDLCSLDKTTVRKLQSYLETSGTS
FGF22 binding – shifts melting point of recombinant human FGF22. Q9HCT0. recombinant FGF22 thermal shift, SYPRO orange fluorescence; percent of sucrose octasulfate shift, DMSO zero. calls only at 9.99 µM. 1.5% of 340,000 active. AID 651658;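 active = melting point raised past a set limit in the mean and every replicate; inconclusive = no clear call; three in four hits are not shown here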
Target sequence (Q9HCT0 whole entry, looked up): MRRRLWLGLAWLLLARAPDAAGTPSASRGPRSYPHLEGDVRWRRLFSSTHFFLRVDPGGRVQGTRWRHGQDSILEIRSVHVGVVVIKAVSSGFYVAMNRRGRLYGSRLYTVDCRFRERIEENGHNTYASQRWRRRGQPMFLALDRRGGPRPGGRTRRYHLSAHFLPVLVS
ALR inh – human ALR oxidase inhibition via reduced H2O2; P55789; purified ALR, DTT oxidation, H2O2 HRP-luminol luminescence; inhibition, % (test concentration not listed); 3.8% of 290,000 active;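 active = mean and each replicate at 75% or more; inconclusive = only one of the two met; inactive = neither met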;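 note: stock transfer was 7.5 nL into about 7.5 µL; 0% = neutral wells and 100% = wells with inactivated enzyme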
Target sequence (P55789 whole entry, looked up): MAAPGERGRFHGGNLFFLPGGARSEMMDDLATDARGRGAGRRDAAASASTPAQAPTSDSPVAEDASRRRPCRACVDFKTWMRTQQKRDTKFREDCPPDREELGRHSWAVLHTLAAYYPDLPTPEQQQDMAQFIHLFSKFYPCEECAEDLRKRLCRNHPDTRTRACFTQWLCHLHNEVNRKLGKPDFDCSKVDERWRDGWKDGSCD
Ecoli rRNA inh OD600 – second read-out of Ecoli rRNA inh, no call of its own (marks repeat the call); OD600 change, %; measured here: OD600 growth;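 optical density of the mix in the first replicate; 0 = DMSO median and -100 = no signal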
Ecoli rRNA inh RFP – second read-out of Ecoli rRNA inh, no call of its own (marks repeat the call); RFP signal change, %; measured here: RFP humanized mutant strains;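 first replicate; 0 = DMSO median and -100 = no signal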
Starred values were filed as active, the others as inactive; i = inactive; ? = inconclusive; / = not tested or not shown; & = joins results of further samples. Only part of the results is shown; count on the stated rates, not on these rows.

Order of values – E coli growth, Ecoli rRNA inh, Ecoli rRNA inh OD600, Ecoli rRNA inh RFP, Vif TR-FRET, HNF4A DNA FP, AF4-AF9 inh, FGF22 binding, ALR inh
CCCC(=O)Nc1ccc2c(c1)OC[C@@H](C)NC[C@@H](C)[C@@H](OC)CN(C)C2=O
  /, 4, 4, -1.1, /, /, -2.9, i, /
COc1ccc(CCC(C)NCCc2ccc(Cl)cc2Cl)cc1 (centres undefined)
  0.63, -52, -83, -27, /, 2.5, 8.1, i, 2
CCCC1=Nc2cc(C(=O)NCCN3CCCC3)ccc2Sc2ccccc21
  0.65, -6, -21, 0.2, /, 2.3, 9.6, i, -3
C[C@H](CO)N1C[C@H](C)[C@H](CN(C)S(=O)(=O)c2cn(C)cn2)Oc2ccc(NC(=O)Cc3cn(C)c4ccccc34)cc2CC1=O
  /, 5, 14, -1.6, /, /, 1.2, i, /
Cc1cc2c(ncn2C)c(NS(=O)(=O)c2ccccc2Cl)c1C
  0.67, /, /, /, 5%, 3.1, /, /, /
Nn1c(SCc2ccccc2)nnc1-c1ccccn1
  0.69, /, /, /, 14%, -2.2, /, /, -2
COc1ccc(S(=O)(=O)Nc2ccc3c(c2)CC(=O)N([C@@H](C)CO)C[C@@H](C)[C@@H](CN(C)S(=O)(=O)c2c(C)noc2C)O3)cc1
  /, -1, -2, -0.7, /, /, -0.1, i, /
O=C(COc1ccc(Br)cc1)Nc1cc(S(=O)(=O)N2CCCCC2)ccc1N1CCCCC1
  0.68, /, /, /, 3%, 2.1, /, /, /
CC1(C)C2CC[C@]3(C)C(CC=C4[C@@H]5C[C@@](C)(CO)CC[C@]5(C(=O)O)CC[C@]43C)[C@@]2(C)CC[C@@H]1O (some centres undefined)
  0.72, /, /, /, /, 2.5, -1.2, i, -8
COc1cc(C(=O)N2CCN(S(=O)(=O)c3cc(C)ccc3C)CC2)ccc1OCC(=O)N1CCOCC1
  0.67, 2, 10, -1.8, /, -0.7, -0.8, i, /
CC(=O)c1nc(N2C(=O)C3CC=C(C)CC3C2=O)sc1C (centres undefined)
  0.66, /, /, /, 1%, 4.5, /, /, 20
CCCC1CCC(=NNS(=O)(=O)c2ccc(C)c([N+](=O)[O-])c2)CC1 (centres undefined)
  0.73, 1, -1, 1.9, /, -1.7, -1.1, i, 8
O=C(CCCOc1ccccc1)Nc1nncs1
  0.71, /, /, /, 19%, 2.8, /, /, /
O=C(NC1C(=O)NNC1c1ccc(Cl)cc1)c1ccc(F)cc1 (centres undefined)
  0.71, -6, -4, -0.9, ?, -1.9, 0.6, /, 13
COc1ccccc1NC(=O)CN1CCOCC1
  0.67, 6, 13, -2.8, /, 0.7, -2.3, i, -29

(cont.)
Order of values – E coli growth, Ecoli rRNA inh, Ecoli rRNA inh OD600, Ecoli rRNA inh RFP, Vif TR-FRET, HNF4A DNA FP, AF4-AF9 inh, FGF22 binding, ALR inh
CCOc1ccccc1NC(=S)NCCc1ccc(F)cc1
  0.68, -6, -4, -2.7, -5%, 7.1, 3.0, i, /
O=C1Cc2ccccc2C(=O)N1c1ccc(F)cc1Cl
  0.69, 3, -3, 2.3, /, -3.9, 2.2, i, 17
COC(=O)Nc1ccc(S(=O)(=O)N2CCC(C(=O)NCc3ccc4c(c3)OCO4)CC2)cc1
  0.68, -1, -2, 36, -7%, -1.8, -2.4, i, 2
Cc1ccc(-c2nn(-c3cc(N4CCNCC4)ccc3[N+](=O)[O-])c(=O)c3ccccc23)cc1
  0.63, -14, 1, 2.3, 6%, 2.7, 1.7, i, -4
O=c1[nH]c(SCCc2ccccc2)nc2c1CCC2
  /, 2, 12, 0.1, /, 3.1, -0.3, i, /
O=C(Cc1ccccc1)Nc1ccccc1C(=O)N1CCCCC1
  0.71, 12, 11, 0.1, -2%, 1.2, -0.8, i, -3
C[C@@H]1CN([C@H](C)CO)C(=O)c2cccc(NC(=O)c3ccc(-c4nccs4)cc3)c2O[C@@H]1CN(C)Cc1ccc(C(=O)O)cc1
  /, -2, -5, 2.3, /, /, -0.2, i, /
COc1ccc(-c2nnc(SCc3nc4ccccc4s3)n2C(C)C)cc1
  0.77, /, /, /, 7%, 4.5, /, /, ?
C[C@@H]1CN([C@@H](C)CO)C(=O)c2cc(-c3ccc(F)cc3)cnc2O[C@@H]1CN(C)S(C)(=O)=O
  /, 2, 17, -2.5, /, /, -3.3, i, /
N/C(=N\OC(=O)CC1CCCCC1)c1ccccn1
  0.65, 1, -4, -4.8, 7%, -0.1, -5.8, i, 0
CN(C(=O)c1cccc(C(=O)N(C)c2ccccc2)c1)c1ccccc1
  0.71, -6, -7, -1.4, /, -0.3, -3.0, i, -11
Cc1ccccc1NC(=O)NC1(C(=O)N2CCOCC2)CCCCC1
  0.7, 2, 9, 0.6, -2%, 2.3, 0.6, i, -1
C[C@@H]1CCCCO[C@@H](CN(C)Cc2ccncc2)[C@@H](C)CN([C@H](C)CO)C(=O)c2cc(NS(=O)(=O)c3cn(C)cn3)ccc2O1
  /, -1, 5, -0.9, /, /, -5.7, i, /
CCCCOC(=O)C1CCCC(C(=O)OCCCC)N1 (centres undefined)
  0.77, /, /, /, 6%, 4.5, /, /, 0
Cc1cc(NC(=O)CCC(=O)N(CC(=O)NCC2CCCO2)c2ccccc2)no1 (centres undefined)
  0.66, 4, 19, -2.5, /, -0.2, 0.8, i, 3

Later entries:
Order of values – E coli growth, Ecoli rRNA inh, Ecoli rRNA inh OD600, Ecoli rRNA inh RFP, Vif TR-FRET, HNF4A DNA FP, AF4-AF9 inh, FGF22 binding, ALR inh
CC1(C)Oc2ccc3ccc(=O)oc3c2[C@@H](O)[C@@H]1O
  0.77, 4, 5, -8.7, /, -7.4, -1.1, i, 1
C[C@H](CO)N1C[C@H](C)[C@@H](CN(C)Cc2ccc(Cl)c(Cl)c2)Oc2ccc(NC(=O)Nc3ccc4c(c3)OCO4)cc2C1=O
  /, -3, -2, 1.6, /, /, 7.0, i, /
O=c1[nH]cc(S(=O)(=O)NCc2ccccc2)c(=O)[nH]1
  0.69, 5, 14, -3.0, 0%, -5.4, 2.5, i, /
Nc1ccc2nc(-c3ccccc3)[nH]c2c1
  0.64, /, /, /, 10%, -1.2, /, /, 99*
CCNC(=O)C[C@H]1CC[C@@H]2[C@@H](COc3ccc(NC(=O)Nc4ccc(C)cc4)cc3C(=O)N2C)O1
  /, -2, -11, -0.1, /, /, 0.3, i, /
N#CC1=C(N)Oc2n[nH]c(-c3ccccc3)c2C1c1ccncc1 (centres undefined)
  0.71, /, /, /, 19%, 1.2, /, /, -30
COc1ccc(N)c(C)c1
  /, 2, 3, 10, /, 3.3, /, i, /
Clc1cccc(Cl)c1CO/N=C/c1cccs1
  /, -15, -10, 0.6, 27%, 1.5, /, i, -6
O=c1[nH]c(O)c(/C=C2\C=Nc3ccccc32)[nH]1
  0.65, 15, 3, -0.3, -5%&11%, -4.5, -2.1, i, 3
COc1ccc(-c2cn3c(C)c(C(=O)N4CCN(c5ccccc5)CC4)sc3n2)cc1
  0.74, 3, 8, 0.1, /, -3.1, -8.9, i, /
CC1(C)Oc2ccc(C(=O)NC3CC3)cc2N(CC(=O)N2CCOCC2)C1=O
  0.72, /, /, /, 3%, 2.7, /, /, -3
C=CCNC(=O)c1onc(CSc2ccccc2CC)c1C(=O)O
  0.66, -12, -7, 1.9, 30%, -2.8, -7.0, i, 6
C[C@H]1CN([C@@H](C)CO)C(=O)Cc2cc(NC(=O)Nc3ccccc3)ccc2O[C@H]1CN(C)Cc1ccc(Oc2ccccc2)cc1
  /, 2, 17, -0.1, /, /, -0.6, i, /
COc1ccccc1OCc1nc(-c2ccc([N+](=O)[O-])cc2)no1
  0.67, /, /, /, 13%, -2.5, /, /, -14
COc1ccc(C)cc1S(=O)(=O)N1CC(C)OC(C)C1 (centres undefined)
  0.73, 8, 5, 3.4, 0%, 1.7, -0.4, i, -2

More compounds follow:
Abbreviations: A = E coli growth; B = Ecoli rRNA inh; C = Ecoli rRNA inh OD600; D = Ecoli rRNA inh RFP; E = Vif TR-FRET; F = HNF4A DNA FP; G = AF4-AF9 inh; H = FGF22 binding; I = ALR inh
CCC(C)NC(=O)C1CCN(c2nc(OC)nc(OC)n2)CC1 (centres undefined)
  A: 0.67; B: /; C: /; D: /; E: -4%; F: -1.0; G: /; H: /; I: -2

COc1ccc(NC(=O)CCS(=O)(=O)c2cc3c(cc2C)NC(=O)CO3)cc1
  A: 0.67; B: 11; C: 13; D: 5.2; E: /; F: -3.0; G: -8.4; H: i; I: -15

CCOC(=O)c1c(NC(=O)CSc2nc3nc(C)cc(C)n3n2)sc(CC)c1C
  A: 0.71; B: 2; C: 4; D: -0.1; E: /; F: -1.2; G: -1.0; H: i; I: -10

CSc1ccc(OC2CCCCC2NS(=O)(=O)c2ccccc2)cc1 (centres undefined)
  A: 0.69; B: -19; C: -17; D: -0.9; E: -2%; F: 1.2; G: 6.6; H: i; I: -29

CC(C)(C)c1cc(CNC(=O)C2CCC(=O)N(Cc3ccccc3F)C2)[nH]n1 (centres undefined)
  A: /; B: /; C: /; D: /; E: 0%; F: 1.4; G: -0.2; H: i; I: /

O=C(COC(=O)C1CC1)Nc1ccc(OC(F)F)cc1
  A: 0.72; B: /; C: /; D: /; E: 11%; F: 1.2; G: /; H: /; I: /

O=C1c2ccccc2NC(c2ccco2)N1O (centres undefined)
  A: 0.75; B: /; C: /; D: /; E: 11%; F: -1.2; G: /; H: /; I: 8

CC(C)(C)c1csc(NC(=O)c2cccnc2)n1
  A: 0.68; B: 2; C: 6; D: 9.5; E: /; F: 4.4; G: -1.7; H: i; I: 9

Oc1ccc2ccccc2c1N=Nc1ccccn1
  A: 0.74; B: /; C: /; D: /; E: 19%; F: 3.3; G: /; H: /; I: -5

In a second layout: eleven of the compounds above.
structure | E coli growth | Ecoli rRNA inh | Ecoli rRNA inh OD600 | Ecoli rRNA inh RFP | Vif TR-FRET | HNF4A DNA FP | AF4-AF9 inh | FGF22 binding | ALR inh
COc1ccccc1OCc1nc(-c2ccc([N+](=O)[O-])cc2)no1 | 0.67 | / | / | / | 13% | -2.5 | / | / | -14
COc1ccc(C)cc1S(=O)(=O)N1CC(C)OC(C)C1 (centres undefined) | 0.73 | 8 | 5 | 3.4 | 0% | 1.7 | -0.4 | i | -2
CCC(C)NC(=O)C1CCN(c2nc(OC)nc(OC)n2)CC1 (centres undefined) | 0.67 | / | / | / | -4% | -1.0 | / | / | -2
COc1ccc(NC(=O)CCS(=O)(=O)c2cc3c(cc2C)NC(=O)CO3)cc1 | 0.67 | 11 | 13 | 5.2 | / | -3.0 | -8.4 | i | -15
CCOC(=O)c1c(NC(=O)CSc2nc3nc(C)cc(C)n3n2)sc(CC)c1C | 0.71 | 2 | 4 | -0.1 | / | -1.2 | -1.0 | i | -10
CSc1ccc(OC2CCCCC2NS(=O)(=O)c2ccccc2)cc1 (centres undefined) | 0.69 | -19 | -17 | -0.9 | -2% | 1.2 | 6.6 | i | -29
CC(C)(C)c1cc(CNC(=O)C2CCC(=O)N(Cc3ccccc3F)C2)[nH]n1 (centres undefined) | / | / | / | / | 0% | 1.4 | -0.2 | i | /
O=C(COC(=O)C1CC1)Nc1ccc(OC(F)F)cc1 | 0.72 | / | / | / | 11% | 1.2 | / | / | /
O=C1c2ccccc2NC(c2ccco2)N1O (centres undefined) | 0.75 | / | / | / | 11% | -1.2 | / | / | 8
CC(C)(C)c1csc(NC(=O)c2cccnc2)n1 | 0.68 | 2 | 6 | 9.5 | / | 4.4 | -1.7 | i | 9
Oc1ccc2ccccc2c1N=Nc1ccccn1 | 0.74 | / | / | / | 19% | 3.3 | / | / | -5
